Screening data: PubChem, The Scripps Research Institute Molecular Screening Center
OX1R antag-1 = OX1R (human) antagonism; O43613; OX1R-expressing cells, FRET antagonist read-out; inhibition, % at 6.6 µM; 1.8% of 330,000 active; AID 485270; in the data active means inhibition mostly above about 38%, no sharp cut-off; inactive means mostly below about 40%;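 further: 0% = agonist challenge alone and 100% = reference antagonist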
Target sequence (O43613 whole entry, looked up): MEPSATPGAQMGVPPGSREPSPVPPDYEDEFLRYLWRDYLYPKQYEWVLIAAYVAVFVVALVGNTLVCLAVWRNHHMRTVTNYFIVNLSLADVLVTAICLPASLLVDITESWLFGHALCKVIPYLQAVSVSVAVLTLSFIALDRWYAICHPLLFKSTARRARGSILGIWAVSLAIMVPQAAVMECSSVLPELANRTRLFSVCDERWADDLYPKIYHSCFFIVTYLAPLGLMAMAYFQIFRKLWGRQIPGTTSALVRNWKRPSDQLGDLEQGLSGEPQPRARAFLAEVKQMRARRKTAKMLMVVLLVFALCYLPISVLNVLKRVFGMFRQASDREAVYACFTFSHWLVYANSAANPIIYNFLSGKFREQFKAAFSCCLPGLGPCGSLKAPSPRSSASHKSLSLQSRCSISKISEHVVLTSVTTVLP
OX1R antag-2 = human HCRTR1 antagonism | O43613 | CHO/OX1R cells, Fluo-8 calcium fluorescence, orexin A | inhibition, % at 5 µM | 0.43% of 330,000 active | AID 434989;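 active means inhibition above its plate's threshold, mean inhibition of all tested compounds on the plate plus 3 SD, cut at about 37% in these data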;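 further: 0% = orexin A challenge wells and 100% = SB-334867-A antagonist wells; not every result past the cut was called active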
* marks the source's active call; other numbers are inactive results. Only part of the results is shown, and most or all hits are left out here.

SMILES	OX1R antag-1	OX1R antag-2
CCCc1ccc(-c2csc(NC(=O)Cc3cccs3)n2)cc1	29	-9
CC1CC(NC(=O)/C=C/C(=O)O)CC(C)(C)C1 (stereo not drawn)	8	20
COc1ccc(NC(=O)c2ccccc2NC(=O)CSc2ccc(C)cc2)cc1	16	-13
O=C(CSC1=N/C(=C/c2ccco2)C(=O)N1c1ccc(OC(F)F)cc1)NC1CCS(=O)(=O)C1 (stereo not drawn)	6	-14
CCOC(=O)N1CCN(c2nc3ccccn3c(=O)c2C=O)CC1	1	-19
COc1ccc(C2(C(=O)Nc3ccc(C(=O)N4CCOCC4)cc3)CCOCC2)cc1	10	-26
Cc1cc(-c2cccs2)c(C#N)c(=S)[nH]1	3	-16
Cc1ccccc1OCC(=O)NNC(=O)Nc1ccccc1	6	-21
O=S(=O)(Nc1ccc(N2CCCCC2)cc1)c1cccc2cccnc12	20	-15
CN(C)CCCNc1ncnc2sc(-c3ccccc3)cc12	41	-18
CCOc1ccc(CC2c3cc(OCC)c(OCC)cc3CCN2C(=O)CN2CCN(C)CC2)cc1OCC (stereo not drawn)	5	-39
CCOC(=O)c1sc(NC(=O)c2ccccc2F)c(C(N)=O)c1C	22	-28
CCN(CC)S(=O)(=O)c1ccc(O)c(C(=O)OCC(=O)N2CCCC2)c1	15	-10
Cc1ccc(S(=O)(=O)N2CC=C(C(=O)NCc3ccc(F)cc3)CC2)cc1	15	-34
CC1CCCCC1NC(=O)C1CCN(S(=O)(=O)N2CCC3(CC2)OCCO3)CC1 (stereo not drawn)	10	-8
C/C(Cl)=C\Cn1c(NCCCn2ccnc2)nc2c1c(=O)n(C)c(=O)n2C	7	-10
Cc1cccc(NC(=O)C2CCCN(C(=O)Nc3ccccc3)C2)c1C (stereo not drawn)	8	-23
COc1ccc(-c2nc(CN3CCN(C(=O)c4ccco4)CC3)c(C)o2)cc1OC	8	-2
CC([NH2+][O-])C(C)(C)NO (stereo not drawn)	18	-5
COc1ccccc1/C=N/NC(=O)c1ccc(Br)cc1	30	-14
COc1cc(C(=O)Nn2c(CC(C)C)nc3ccccc3c2=O)cc(OC)c1OC	9	-33
Cc1cc(CNC(=O)C2CCC(=O)N(CCc3ccc(Cl)cc3)C2)no1 (stereo not drawn)	12	-22
Cc1nc(SCC(=O)N2CCc3ccccc32)n[nH]1	15	-4
CC1CCN(C(=S)c2ccc3c(c2)OCO3)CC1	11	-11
O=C(O)c1cc(/C=C/c2ccc(N3CCOCC3)cc2)nc2ccccc12	29	-15
Continuation:
SMILES	OX1R antag-1	OX1R antag-2
O=C(CCC1CCCCC1)NCc1cccs1	12	-1
Cc1cc2c(cc1C)CSC(c1c(O)ccc3ccccc13)SC2	15	17
CCN(CC)S(=O)(=O)c1ccc(/C=C/C(=O)OCC(=O)NNC(=O)c2ccc(OC)cc2)cc1	8	-7
O=C(O)CCCCCn1c(SCc2cc(=O)n3ccccc3n2)nc2ccsc2c1=O	41	-23
CN(c1ccc(S(=O)(=O)N2CCOCC2)cn1)C1CCCCC1	23	0
O=C(COc1ccc2ccccc2c1)NC1=NCCS1	28	-18
COC(=O)c1ccccc1NC(=O)CSc1nc2c(c(=O)[nH]1)CCC2	9	-16
CCn1c(SCC(=O)Nc2nnc(C)s2)nnc1-c1ccncc1	11	-4
O=C(CSc1nc(-c2cccs2)cc(C(F)(F)F)n1)NCCCN1CCOCC1	13	-29
CCOC(=O)C1=C(C)Nc2nc(C)nn2C1c1cc(OC)ccc1OC (stereo not drawn)	11	-12
CN1CCCN(S(=O)(=O)c2ccc3c(c2)OCCO3)CC1	10	-4
COCC(C)NC(=O)C(C)N1c2cccc3cccc(c23)S1(=O)=O (stereo not drawn)	21	-23
Cc1ccc(/C(N)=N/OC(=O)CSc2ccccc2)cc1	8	1
CSc1ccc(S(=O)(=O)NCc2ccc(Cl)cc2)cc1	5	8
CCO[C@H]1OC(C(=O)NC2CC2)=C[C@@H](C2CCCCC2)[C@@H]1CCCO	4	-25
CS(=O)(=O)N1CCN(C2Cc3ccccc3C2)CC1	2	-12
COCc1nc2ccccc2n1Cc1c(F)cccc1Cl	7	-19
CCOC(=O)c1c(C)[nH]c(C(=O)CN(C)CC(=O)Nc2ccccc2C(F)(F)F)c1C	10	-44
O=C(NCCOc1ccccc1F)Nc1ccc(Br)cc1	38	2
COc1ccc(CN2CCN(CC3CC3)CC2CCO)c(C)c1C (stereo not drawn)	14	-20
O=C(NCCCN1CCOCC1)C1CC(=O)N(c2ccccc2)C1 (stereo not drawn)	4	-16
Cc1ccc(S(=O)(=O)Nc2ccc(-c3ccc4nncn4n3)cc2)cc1	8	18
COCc1nc(-c2cc(OC)c(OC)c(OC)c2)no1	15	-8
Cc1ccc(NC(=S)NC(=O)C2CC2)c(C)c1	20	0
COc1ccc(CCNC(=O)c2ccccc2NS(=O)(=O)c2c(F)cccc2F)cc1	16	-23
Following part
SMILES	OX1R antag-1	OX1R antag-2
Cn1nc(C(F)(F)F)cc1C(=O)Nc1ccc(Cl)cc1	6	-6
Fc1ccc(NC(=S)N/N=C/c2cccc(Br)c2)c(F)c1	21	-8
Cc1nnc(SCc2cccs2)[nH]c1=O	-2	4
CS(=O)(=O)N(CC(=O)N1CCC(C(N)=O)CC1)c1ccc(Cl)c(C(F)(F)F)c1	-2	-3
Cc1cc(C)c(C#N)c(SCC(=O)Nc2c(C)n(C)n(-c3ccccc3)c2=O)n1	13	-9
O=C(CC(=O)Nc1ccccc1[N+](=O)[O-])Nc1ccccc1[N+](=O)[O-]	10	2
CN(C)CCNc1ccc(Cl)cc1[N+](=O)[O-]	57	2
O=C1CCCCC(=O)c2ccccc2N1	5	-14
Cc1ccc(N2C(=O)C(CN3CCOCC3)C2c2ccccc2)cc1 (stereo not drawn)	5	-12
CCN1CCN(C(=O)CCCn2c(C)c3cnn(-c4ccccc4)c(=O)c3c2C)CC1	-7	-9
CC(C)C[C@H](NC(=O)Nc1ccccc1F)C(=O)O	1	0
COc1ccc(N=Nc2ccc(N)nc2N)cc1	2	5
Cc1ccc(OCCNC(=O)CCNC(=O)c2ccc(Cl)cc2)cc1	9	-22
Cc1ccc2nc(Cl)c(-c3ccccc3)cc2c1	6	-24
CCCCOC(=O)c1ccc(NC(=O)c2ocnc2C)cc1	13	5
CCOc1ccc(NC(=O)C2CCN(S(=O)(=O)c3ccc4c(c3)NC(=O)C(C)S4)CC2)cc1 (stereo not drawn)	-3	-2
CO/N=C(/CN1CCCCC1)c1ccc(Cl)cc1	13	-1
O=C(NC(=S)NN1CCCCC1c1cccnc1)c1ccc(Cl)cc1Cl (stereo not drawn)	1	-35
CC(=O)c1oc2ccccc2c1NC(=O)COC(=O)c1ccc(-n2nc(C)cc2C)cc1	11	-17
CCOc1ccc(S(=O)(=O)Nc2ccccc2C(=O)NCC2CCCO2)cc1 (stereo not drawn)	14	-19
O=C(c1nc2n(n1)C(c1ccc(Cl)cc1)C=C(c1ccccc1)N2)N1CCOCC1 (stereo not drawn)	21	-16
Nc1nc(SCC(=O)Nc2ccc3c(c2)OCO3)n[nH]1	19	-1
COc1ccc(-c2cc3ccccc3cn2)cc1	19	-19
NC(=O)c1ccc(NC(=O)CSc2nncn2-c2ccccc2)cc1	19	-15
O=C(Nc1nccs1)C1CC2CCC1C2 (stereo not drawn)	15	-15

Look-ups from above:
Value for CCOC(=O)c1c(C)[nH]c(C(=O)CN(C)CC(=O)Nc2ccccc2C(F)(F)F)c1C under OX1R antag-1: 10
Value for Cc1ccccc1OCC(=O)NNC(=O)Nc1ccccc1 under OX1R antag-2: -21
Value for Cc1nnc(SCc2cccs2)[nH]c1=O under OX1R antag-2: 4
Value for Cc1ccc(NC(=S)NC(=O)C2CC2)c(C)c1 under OX1R antag-1: 20
Value for CS(=O)(=O)N1CCN(C2Cc3ccccc3C2)CC1 under OX1R antag-1: 2

(further entries)
SMILES	OX1R antag-1	OX1R antag-2
COc1cccc(Oc2ccc(N/C=C/C(=O)C(C)(C)C)cc2)c1	9	-26
CCCNS(=O)(=O)c1ccc(OCC(=O)N2CCC(C(=O)OCC)CC2)cc1	13	-10
Cn1c(=O)[nH]c(=O)c2c1nc(Sc1nc3ccccc3s1)n2Cc1ccccc1	32	-17
CC(=O)n1nc(-c2cccnc2)nc1N	7	2
COC(=O)c1ccc(N2C(=O)CC(SCC(=O)Nc3ccc(OC)cc3)C2=O)cc1 (stereo not drawn)	1	-9
COc1ccc(S(=O)(=O)Nc2cc(OC)c(NC(=O)c3ccco3)cc2OC)cc1	27	17
O=C(Nc1ccc2c(c1)OCCO2)c1c(F)cccc1F	11	-16
O=C(COc1cc(Cl)ccc1Cl)Nc1nnc(CC(=O)N2CCOCC2)s1	24	-13
CCCCC(=O)Nc1ccc(NCc2ccc(C)s2)cc1	0	-25
CCCOc1ccc(-c2cn3ccccc3n2)cc1	25	-23
N/C(=N/O)c1ccccc1N1CCC(Cc2ccccc2)CC1	9	-22
COC(=O)c1cc(OC)c(OC)c(OC)c1N	21	-5
CCOCC(=O)Nc1nc2ccc(C)cc2s1	13	-13
Cc1c(NC(=S)N2CCN(c3cccc(Cl)c3)CC2)c(=O)n(-c2ccccc2)n1C	7	-34
N#C/C(=C\c1cn(Cc2ccc(C#N)cc2)c2ccccc12)C(=O)NCc1cccs1	8	-4
OC(CSc1ccccc1Cl)CN1CCN(c2ccc(F)cc2)CC1 (stereo not drawn)	5	-21
Cc1ccc(-c2nnc(SCC(=O)N/N=C/c3ccc(C)s3)n2-c2ccccc2)cc1	19	-24
S=C(NCC1CCCO1)Nc1ccccc1 (stereo not drawn)	3	5
Cc1cccnc1NS(=O)(=O)c1cccc([N+](=O)[O-])c1	42	-13
COC(=O)c1cn(C)c2ccc(S(=O)(=O)N3CC(C)CC(C)C3)cc2c1=O (stereo not drawn)	9	-25
CC(=O)N1CCN(S(=O)(=O)c2cccc(C(=O)NC3CCCC3)c2)CC1	1	4
COc1cccc(NC(=S)N2CCCN(Cc3ccc(F)cc3)C2)c1	13	-27
O=C(c1ccncc1)N(Cc1ccco1)Cc1cc2ccccc2[nH]c1=O	8	-14
CCN(Cc1ccccc1)S(=O)(=O)c1ccc(S(=O)(=O)N(Cc2ccccn2)Cc2ccco2)cc1	2	-18
CCOc1cccc(C2/C(=C(/O)c3ccc4c(c3)CC(C)O4)C(=O)C(=O)N2Cc2cccnc2)c1 (stereo not drawn)	0	-8
The list continues.
SMILES	OX1R antag-1	OX1R antag-2
COc1ccc(/C=C2\CCn3c2nc2ccccc2c3=O)cc1OC	-1	-20
CC(=O)N(C(C)=O)c1c(N2CCOCC2)c2ccccc2oc1=O	11	-7
O=C(COc1ccc2ccccc2c1)Nc1ccc(Br)cc1C(=O)O	35	-9
Cc1ccc2cc(CCNC(=O)CCCc3ccccc3)c(=O)[nH]c2c1	10	-24
CC(NS(=O)(=O)c1ccc(CCC(=O)NCc2ccco2)cc1)c1ccccc1 (stereo not drawn)	6	-28
Cc1cc(NC(=O)Nc2ccc(Cl)cc2)n(-c2ccccc2)n1	7	-17
COc1ccc(-c2nn(-c3ccccc3)cc2C(=O)Nc2nc(CC(C)=O)ns2)cc1	29	-16
Nc1nonc1-c1noc(-c2ccccc2Br)n1	10	-13
CCn1c2ccccc2c2cc(NC(=O)C(C)Oc3ccc(OC)cc3)ccc21 (stereo not drawn)	17	-17
Cc1ccc(NC(=S)N2CCCN(Cc3ccc(F)cc3)C2)c(C)c1	13	-15
O=C(c1ccccc1Cl)N(Cc1ccc(Br)cc1)N1C(=O)CCCC1=O	13	-9
CN1CCc2c(sc3nc(SCC(N)=O)n(-c4ccc(Cl)cc4)c(=O)c23)C1	3	-1
COc1ccc(S(=O)(=O)N2CCC(C(=O)N3CCCCCC3)CC2)cc1	-5	-19
O=C(COc1cccc(-n2cnnn2)c1)N1CCOCC1	6	6
CCC1C=C(c2ccccc2)C=CN=C1N(CC)CC (stereo not drawn)	7	-12
CN(C)/C=C1\C(=O)N(c2ccc(Cl)cc2)CS1(=O)=O	13	-11
COc1cccc(C(=O)OCC(=O)N2CCc3ccccc3C2)c1	13	-12
Cc1ccc(CNC(=O)C2CCN(S(=O)(=O)c3cccs3)CC2)cc1	2	-15
O=C(CSc1nnc(-c2ccc(F)cc2)o1)c1ccc2c(c1)OCCO2	-5	30
O=C(Nc1ccccc1OC(F)F)C1CCCN1C(=O)c1cccs1 (stereo not drawn)	4	-4
CCCOc1ccc(N2C(=O)C3ON(c4ccccc4)C(CCC)C3C2=O)cc1 (stereo not drawn)	2	-32
CCOC(=O)C1CCCN(S(=O)(=O)c2ccc3c(c2)C(C)(C)C(=O)N3C)C1 (stereo not drawn)	11	-7
O=C(NCc1ccccc1Cl)C1CCCO1 (stereo not drawn)	19	-10
CCN(CC)C(=O)Cn1cnc2c1c(=O)n(C)c(=O)n2C	18	-19
Cc1ccc(C)c(NC(=O)CN(C)C(=O)C2COc3ccccc3O2)c1 (stereo not drawn)	0	-16
CC1=C(C(=O)OC(C)C)C(c2ccncc2)n2ncnc2N1 (stereo not drawn)	17	-9
CCOC(=O)N1CCN(c2nnc(-c3ccccc3)c3ccccc23)CC1	9	-40
O=C(Nc1ccc2oc(=O)ccc2c1)c1ccc(-c2cccc(Cl)c2)o1	4	-8

In the list so far, eight have a furan ring, fused or not:
SMILES	OX1R antag-1	OX1R antag-2
O=C(CSC1=N/C(=C/c2ccco2)C(=O)N1c1ccc(OC(F)F)cc1)NC1CCS(=O)(=O)C1 (stereo not drawn)	6	-14
COc1ccc(-c2nc(CN3CCN(C(=O)c4ccco4)CC3)c(C)o2)cc1OC	8	-2
CC(=O)c1oc2ccccc2c1NC(=O)COC(=O)c1ccc(-n2nc(C)cc2C)cc1	11	-17
COc1ccc(S(=O)(=O)Nc2cc(OC)c(NC(=O)c3ccco3)cc2OC)cc1	27	17
O=C(c1ccncc1)N(Cc1ccco1)Cc1cc2ccccc2[nH]c1=O	8	-14
CCN(Cc1ccccc1)S(=O)(=O)c1ccc(S(=O)(=O)N(Cc2ccccn2)Cc2ccco2)cc1	2	-18
CC(NS(=O)(=O)c1ccc(CCC(=O)NCc2ccco2)cc1)c1ccccc1 (stereo not drawn)	6	-28
O=C(Nc1ccc2oc(=O)ccc2c1)c1ccc(-c2cccc(Cl)c2)o1	4	-8
